Vaccinia mCherry: vaccinia inhibition (mCherry reporter); AID 720579; 310,000 tested, 0.63% active; Potency, µM (titrated, usually from 36.5 µM), inactives show at the top dose activity change, negative = inhibition, actives largely listed as inhibitors; Vaccinia virus mCherry reporter infection, fluorescence; about a quarter of the inactives have no number; active = well fitted inhibition curve with a large enough effect; inconclusive = small, poorly fitted or top-dose-only effect; inactive = no such curve, though single readings can be large or run the other way; tested in A549 cells; note: nearly all actives have a fitted effect of over 35% in size; inactives centre near -10
VACV Venus inh: vaccinia inhibition (Venus reporter); Vaccinia virus Venus reporter expression, fluorescence; Potency, µM (top dose mostly 36.5 µM), for inactives: at the top dose activity change, negative = inhibition, usual class: inhibitors; 330,000 tested, 0.46% active; AID 720580; active means well fitted inhibition curve with a large enough effect; inconclusive means small, poorly fitted or top-dose-only effect; inactive means no such curve, though single readings can be large or run the other way; tested in A549 cells; note: nearly all actives have a fitted effect of over 30% in size; inactives centre near -10
* = called active by the depositor; i = inactive; ? = inconclusive; / = no result given; & = joins results of further samples; [ ] = dose if it differs, or a comment. % is set by controls: 0 for no effect and ±100 for the full control effect; potency is the fitted concentration of half-maximal effect.

entry	compound	VACV Venus inh	Vaccinia mCherry
1	Cc1ccc(-n2c(Cc3cccn3C)nnc2SCC(=O)N2CCc3ccccc32)cc1	-21%	-26%
2	Cc1nc(CN(C)C(=O)c2cc(COc3c(F)cccc3F)on2)cs1	-3%	0%
3	CC(C)(C)OC(=O)C[C@H]1C/C=C\C[C@H](CC(=O)N(CCO)Cc2ccccc2)C(=O)N2CCC[C@H]2COC1=O	-8%	i
4	Cc1nc(C(F)(F)F)ccc1C(=O)Nc1ccc2ccccc2n1	-26%	i
5	COc1ccc([C@H]2[C@H]3C=CC[C@@H](C)[C@@H]3C(=O)N2Cc2ccccc2)cc1Cl	-9%	i
6	CC(C)Oc1ccc(C(=O)N2CCC(CCC(=O)NC3CC3)CC2)cc1	-12%	i
7	COc1ccc(C(C#N)N2N=C(C)CC2(C)C)cc1OC (stereo unspecified)	-8%	-5%
8	CC(=O)C1=C(C)NC(SCC(N)=O)=C(C#N)C1c1cccs1 (stereo unspecified)	-5%	-13%
9	COc1cccc(-n2c(=O)c3c4c(sc3n(Cc3ccc(C)cc3)c2=O)CCCC4)c1	0%	-6%
10	COc1cc2c(C(=O)NCc3ccccn3)cn(C)c(=O)c2cc1OC	-7%	-13%
11	Cc1ccc(OCC(=O)Nc2ccc(S(=O)(=O)Nc3ccccn3)cc2)cc1	-1%	i
12	Cc1cc(N2CCCCCC2)nc2ccccc12	-5%	i
13	O=C(NN1C(=O)C2C3C=CC(O3)C2C1=O)c1ccncc1 (stereo unspecified)	-21%	-17%
14	C/C(=N\NC(=O)c1ccc(NS(=O)(=O)c2cccs2)cc1)c1ccc2ccccc2c1	-13%	-6%
15	O=C(CCCCCl)Nc1c2c(nc3ccccc13)CCC2	-14%	i
16	CCOC(=O)N1CCC(N2C(=O)c3ccc(C(=O)NCc4ccc(F)cc4)cc3C2=O)CC1	5%	7%
17	O/N=C/c1cn(-c2ccccc2)nn1	-7%	-7%
18	CCOC(=O)C/C(N)=N/NC(=O)c1ccc(Cl)cc1Cl	-1%	-5%
19	N#CC1(Nc2ccc(-c3ccc(Cl)cc3)cc2)CCCC1	-11%	?
20	CC(C)(C)NC(=O)CSc1nncn1NCc1cccc2ccccc12	-8%	-25%
21	Cc1cccc(N2CCN(C(=O)c3ccc4c(Cl)c5c(nc4c3)CCCC5)CC2)c1C	-18%	-26%
22	CCOc1ccc(-n2c(O)c(C=Nc3ccc(N(CC)CC)cc3)c(=O)[nH]c2=O)cc1	3%	i
23	CCN(Cc1cc2cc(C)ccc2[nH]c1=O)C(=O)c1cccc(OC)c1	-26%	-4%
24	O=C(NCc1ccccc1)c1nc(-c2c(F)cccc2F)oc1-c1ccccc1	-5%	-4%
25	COc1ccc(CNC(=O)c2cnccn2)cc1	-2%	-13%
26	CCOC(=O)c1ccc(NC(=O)CSc2nnc(C3CC3)n2CC)cc1	-5%	i
27	O=C(Cn1ncc2c1-c1ccccc1OC2)Nc1cccc(Cl)c1	-24%	?
28	COc1ccc(C(C(=O)NCc2ccccc2)N(Cc2ccc3c(c2)OCO3)C(=O)c2cnccn2)cc1 (stereo unspecified)	-7%	i
29	Cc1c(S(=O)(=O)Nc2ccc(Br)cc2)c(=O)n(C)c(=O)n1C	-15%	-2%
30	Cc1cc(C(=O)O)n(C(C)(C)C)n1	-16%	-12%
31	Cc1ccccc1Cn1c(=O)n(CCc2ccccc2)c(=O)c2ccccc21	-5%	-4%
32	O=C(Nc1cccc(C(F)(F)F)c1)c1cccnc1NCCc1ccccc1	-28%	-6%
33	Cc1c(Cl)cccc1NC(=O)Cn1c(=O)n(Cc2ccco2)c(=O)c2sc3ccccc3c21	?	?
34	O=C1CC(C(=O)N2CCOc3ccc(CN4CCC(Oc5cccnc5)CC4)cc3C2)c2ccccc21 (stereo unspecified)	2%	-10%
35	O=C(Cc1ccc(Br)cc1)NCc1ccccc1	?	?
36	O=C(c1cccc(Cl)c1)N1CCN(c2ccc3c(c2)C2CC3CCN2C(=O)OCc2ccccc2)CC1 (stereo unspecified)	-11%	7%
37	CCN(CC)C(=O)C1CCCN(Cc2cccc(Cl)c2)C1 (stereo unspecified)	-6%	37%[activator]
38	CC(/C=C/c1ccccc1)=N/NC(=O)CCC(=O)Nc1ccccc1C	-3%	-14%
39	CCc1ccc(NC(=O)CSc2nc3c([nH]c4ccccc43)c(=O)n2-c2cccc(OC)c2)cc1	-3%	-10%
40	COc1ccc(NC(=O)c2ccco2)cc1NC(=O)COc1ccc(C)c(C)c1	-14%	-21%
41	CC(C)CCN(C(=O)CCSc1ccc(F)cc1)c1c(N)n(Cc2ccccc2)c(=O)[nH]c1=O	?	?
42	CCOc1ccc2cc(C#N)c(SCC(=O)OCc3ccccc3)nc2c1	-20%	i
43	Cc1ccc(NC(=O)N2CCC(C(=O)c3ccc(F)cc3)CC2)cc1	2%	-4%
44	Cc1ccccc1C(=O)Nc1ccnn1C1CCN(CC2CC=CCC2)CC1 (stereo unspecified)	-14%	i
45	CCOC(=O)CNc1nc2ccccc2n2c(C)nnc12	-9%&2%	-4%
46	OCC1N=C(c2ccccn2)OC1c1ccccc1 (stereo unspecified)	-7%	i
47	CCOc1ccc(NC(=O)Nc2ccc3c(c2)N(C)C(=O)CS3)cc1	-12%	14%
48	S=c1[nH]nc(Cc2cccs2)n1-c1ccccc1Cl	-19%	i
49	O=C(NCCCO)c1ccc(CSc2nc3ccccc3[nH]2)cc1	-18%	i
50	CC(C)c1nnc(NC(=O)CCC(=O)NCCc2ccccc2)s1	5%	-8%
51	O=C(CSc1nnnn1C1CCCCC1)NCc1ccccc1	-12%	-18%
52	CCOc1ccc(/C(CC)=N/NC(=O)C2(C)CC2(Br)Br)cc1 (stereo unspecified)	-6%	i
53	CC(=O)N1CCN(S(=O)(=O)c2cccc(C(=O)N(C)Cc3ccc(C)o3)c2)CC1	-14%	i
54	COc1ccc(OC)c(NC(=O)CCn2cccc2)c1	-23%	/
55	O=C(COC(=O)CCCN1C(=O)c2ccccc2C1=O)Nc1cc(Cl)cc(Cl)c1	-11%	-15%
56	COc1cccc(C(=O)NCCS(=O)(=O)NCCc2ccccc2)c1	-15%	-24%
57	O=C(NCc1ccccc1)N(Cc1cc2cc3c(cc2[nH]c1=O)OCCO3)CC1CCCO1 (stereo unspecified)	-17%	/
58	CCN(CC)S(=O)(=O)c1cc(NS(=O)(=O)c2cccc(Cl)c2Cl)ccc1C	-14%	-15%
59	Cc1ccc(C2C3=C(CC(C)(C)CC3=O)NC3=C2C(=O)c2ccccc23)cc1 (stereo unspecified)	?	-21%
60	C/C=C/c1ccc(OCCN2C(=O)NC(C)(C)C2=O)c(OC)c1	-10%	-4%

Individual results from above.
Under Vaccinia mCherry, Cc1ccc(C2C3=C(CC(C)(C)CC3=O)NC3=C2C(=O)c2ccccc23)cc1 (stereo unspecified) shows -21%
Under Vaccinia mCherry, CCOc1ccc(NC(=O)Nc2ccc3c(c2)N(C)C(=O)CS3)cc1 shows 14%
Under VACV Venus inh, COc1cc2c(C(=O)NCc3ccccn3)cn(C)c(=O)c2cc1OC shows -7%

Going on with the list:
entry	compound	VACV Venus inh	Vaccinia mCherry
61	COc1ccc(OC)c(CN(CCN2CCOCC2)C(=O)Nc2cccc(Cl)c2)c1	-1%	2%
62	O=CNc1cc(-c2cccc(F)c2)cn2c(-c3ccc(F)c(Cl)c3)cnc12	0%	5%
63	Brc1cccc(-c2nnc(SCc3ccon3)n2-c2ccccc2)c1	-11%	-14%
64	CC(=NO)c1ccc2c(c1)Cc1cc([N+](=O)[O-])ccc1-2	-18%	?
65	CC(C)[C@H](NC(=O)OC(C)(C)C)c1cc(C(=O)N2CCOCC2)c(N)s1	-5%	i
66	O=C(Nc1nc(-c2cccnc2)cs1)c1ccccc1Cl	4%	7%
67	O=C(O)C1C2C=CC(C2)C1C(=O)NCc1cccc(Cl)c1 (stereo unspecified)	0%	-11%
68	C/C(=N\N=C\c1ccc(N(C)C)cc1)c1cccc([N+](=O)[O-])c1	-8%	-15%
69	CC1CCCC(C)N1CC(O)COc1c(F)cc(Br)cc1F (stereo unspecified)	-10%	-19%
70	COc1ccc(C(=O)NCC(=O)N2CCN(C(=O)c3ccco3)CC2)cc1[N+](=O)[O-]	3%	-9%
71	CCc1nnc(NS(=O)(=O)c2ccc(NC(=O)C(c3ccccc3)c3ccccc3)cc2)s1	12%	i
72	COc1ccccc1-c1c(C)oc2c(CN3CCCCC3C)c(O)ccc2c1=O (stereo unspecified)	-4%	-18%
73	COc1ccc(C(=O)COC(=O)CCN2C(=O)C3C4CC(C(Br)C4Br)C3C2=O)cc1 (stereo unspecified)	-6%	-10%
74	CC(OC(=O)c1ccco1)C(=O)NC1CCCC1 (stereo unspecified)	-8%	-13%
75	O=C(CSc1nnc(-c2ccc(Cl)cc2)n1-c1ccc(Cl)cc1)N/N=C/c1ccco1	-17%	-30%
76	O=C(Nc1ccc(Cl)c(S(=O)(=O)N2CCOCC2)c1)c1cn2ccccc2n1	1%	i
77	CC(C)c1ccc(NC(=O)c2cc(Br)ccc2Br)cc1	-12%	i
78	CCc1ccc(OCC(=O)NNC(=O)Cc2c(F)cccc2Cl)cc1	-2%	-11%
79	Cc1ccc(C(=O)NNC(=S)NC(=O)c2ccccc2)cc1	?	?
80	CCCNC(=O)C(CC)NC(=O)c1cccc([N+](=O)[O-])c1 (stereo unspecified)	-3%	-2%

Whole records as entered above.
`O=C(CSc1nnc(-c2ccc(Cl)cc2)n1-c1ccc(Cl)cc1)N/N=C/c1ccco1` across the screens: VACV Venus inh = -17%; Vaccinia mCherry = -30%
`CC1CCCC(C)N1CC(O)COc1c(F)cc(Br)cc1F` (stereo unspecified) across the screens: VACV Venus inh = -10%; Vaccinia mCherry = -19%

Later entries:
entry	compound	VACV Venus inh	Vaccinia mCherry
81	COC(=O)c1ccc2nc(-c3ccccc3)c(Cc3ccccc3OC)n2c1	-2%	10%
82	Cc1nc2ccc(S(=O)(=O)NCC(=O)N3CCCC(C)C3)cc2s1 (stereo unspecified)	-17%	i
83	CC(C)(C)C(=O)NC1(C(F)(F)F)NC(=O)N(c2ccccc2F)C1=O (stereo unspecified)	-10%	-9%
84	Cc1ccnc(NC(=O)CSc2ccc3c(c2)OCCO3)c1	-7%	-9%
85	Cc1nnc(NCCc2ccccc2)c2ccccc12	0%	-2%
86	Cc1ccc(O)c(NC(=O)CSc2n[nH]c(C)c2[N+](=O)[O-])c1	?	2.5µM*
87	CC1CC(C)CN(C(=O)c2ccc(C(=O)c3ccccc3)cc2)C1 (stereo unspecified)	-2%	-15%
88	CC(C)(C)c1ccc(C(=O)NCCc2csc(-c3ccc(Cl)cc3)n2)cc1	1%	-17%
89	O=C(Nc1nnc(-c2cccs2)o1)c1cccc(F)c1	-23%	-16%
90	COc1cc(/C=N/NC(=O)c2cc(-c3ccccc3Cl)nc3ccccc23)cc(OC)c1O	1%[7.34 µM]	-14%[7.34 µM]
91	CCC(Sc1nc2ccccc2c2nc(CCc3c(C)n[nH]c3C)nn12)C(=O)Nc1ccccc1F (stereo unspecified)	-7%	-6%
92	O=C(CN(C(=O)CCC(=O)Nc1nccs1)c1ccccc1F)NCc1ccc(F)cc1	-6%	1%
93	C[C@@H]1CN([C@@H](C)CO)C(=O)c2cc(NC(=O)CCN3CCOCC3)ccc2O[C@@H]1CN(C)C(=O)Nc1ccccc1	-2%	-1%
94	CN(C)c1ccc(CNC(=O)C2(C)Cc3c(-c4ccccc4)ccnc3O2)cc1 (stereo unspecified)	-23%	-6%
95	Cn1ccc(-c2cc(C(=O)O)c3ccccc3n2)n1	-1%	-13%
96	Nc1ccc(Oc2ccc(N)c([N+](=O)[O-])c2)cc1[N+](=O)[O-]	-20%	-26%
97	CC(C)c1ccc(NC(=O)N2C[C@H]3C[C@@H](C2)c2cccc(=O)n2C3)cc1	0%	-4%
98	COc1ccccc1NC(=O)Cn1c(=O)n(CCc2ccccc2)c(=O)c2sc3ccccc3c21	4%	-6%
99	CC(=O)Nc1ccc(-c2ccnc3c2CC(C)(C(=O)NCc2ccc(F)c(F)c2)O3)cc1 (stereo unspecified)	-26%	-23%
100	O=C(O)c1ccccc1C=NNc1ccccn1	2%	i
101	C[C@H]1CN([C@@H](C)CO)C(=O)c2cc(Br)cnc2O[C@H]1CN(C)S(=O)(=O)c1cccs1	-15%	-30%
102	NC(=O)C1CCN(C(=O)CC2C(=O)NCCN2Cc2cccc(Oc3ccccc3)c2)CC1 (stereo unspecified)	-15%	0%
103	CC1CCC(CN2CCN=C2Nc2ccccc2)CC1 (stereo unspecified)	-12%	-18%
104	COc1ccccc1N1CCN(C(=O)CCNS(=O)(=O)c2cc(Br)cnc2N)CC1	?	-10%
105	CCOc1ccc(C(=O)Nc2cc(NC(=O)c3ccco3)ccc2OC)cc1Br	?	?
106	CCCCNC(=O)C1(C)CCCCN1C(=O)c1csnn1 (stereo unspecified)	-1%	i
107	Cc1ccc(-n2c([S-])c(C(=O)NC(C)c3ccccc3)[n+]3ccccc23)cc1 (stereo unspecified)	5%	-22%
108	Cc1ccc(C(=O)NC2(C(F)(F)F)NC(=O)N(c3ccc(Cl)cc3)C2=O)cc1 (stereo unspecified)	-21%	-17%
109	COC(=O)c1ccc2nc(NC(=O)CSCC(=O)OCC(=O)c3ccccc3)sc2c1	-5%	i
110	CC(C)(C)c1csc(NC(=O)C2COc3ccccc3O2)n1 (stereo unspecified)	-14%	-10%

3 structures out of the list, sorted by SMILES length, descending:
entry	compound	VACV Venus inh	Vaccinia mCherry
102	NC(=O)C1CCN(C(=O)CC2C(=O)NCCN2Cc2cccc(Oc3ccccc3)c2)CC1 (stereo unspecified)	-15%	0%
104	COc1ccccc1N1CCN(C(=O)CCNS(=O)(=O)c2cc(Br)cnc2N)CC1	?	-10%
105	CCOc1ccc(C(=O)Nc2cc(NC(=O)c3ccco3)ccc2OC)cc1Br	?	?

Compound activity from PubChem.
